Mtb hypoxia inh: Mtb hypoxia fluorescent reporter inhibition; AID 1159583; hit rate 0.1% among 300,000; M. tuberculosis hypoxia-regulated fluorescent reporter, fluorescence; fluorescence inhibition, % (test concentration not listed);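 active means 35 to 45% if threefold the growth effect, above 45% if 1.5-fold the growth effect; inactive means the rest, general growth blockers included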;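 further: wells of about 50 µL received 100 nL stock; 0% = vehicle wells and 100% = reference inhibitor wells; whole bacteria with a GFP reporter of the hypoxia response; strong numbers were not always called active; many hits fall short of the cut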
BJeLR lethal: BJeLR cell viability loss. inhibition, % (concentration not given with the values). BJeLR (HRASV12) viability, CellTiter-Glo ATP luminescence, 48 h; reference of the scale not given here. hit rate 0.17% among 300,000;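 active means replicate mean above 50%; inconclusive means above 50% but judged a plate artefact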;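 further: 50 nL library stock added to about 25 µL; numbers are from one replicate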
Sa ugtP lethal: growth inhibition of S. aureus ugtP deletion strain | S. aureus RN4220 ugtP deletion, OD600 growth, 16 h; some inactives read as strong as hits | hit rate 0.54% among 330,000 | AID 1259309 | growth inhibition, % (concentration not given with the values);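 active means z-score under -3 and OD600 up to 0.15 on both plates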;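 further: plate controls were untreated wells for no effect and antibiotic for full effect; wells of about 80 µL received 100 nL stock; the first replicate is given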
Autofluor counter: flagged as autofluorescent in microsphere protease counterscreen; compound autofluorescence counterscreen, microsphere flow cytometry; hits give high values; fluorescence intensity (test concentration not listed); hit rate 3.1% among 360,000;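 active means at least 3 SD above the mean of all compounds, about 16000 in these data; inconclusive means too few beads counted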;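 further: 100 nL of 1 mM stock went into each well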
PrP 5UTR inh: inhibition of PrP 5' UTR reporter expression; cell-based PrP 5' UTR mRNA reporter, plate reader; inhibition, % (test concentration not listed); hit rate 0.35% among 340,000;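 active means every replicate at 50% or more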;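 further: 0 = median of the neutral control wells; tested in H4 reporter cells; numbers are from one replicate; inactives centre near -14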
RN4220 kill: kills Staphylococcus aureus RN4220 | hit rate 0.33% among 330,000 | S. aureus RN4220 growth, OD600, 16 h | inhibition, % (no concentration beside the values);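 active means z-score of -3 or lower and OD600 up to 0.18 on both plates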;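 further: plate controls were untreated cells for no effect and reference antibiotic for full effect; stock transfer was 100 nL into about 80 µL; one replicate is shown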
Mtb hypoxia inh growth: further read-out of Mtb hypoxia inh, marked with its call; growth inhibition, %; measured here: M. tuberculosis growth (absorbance);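 0% = vehicle and 100% = reference antibiotic; read after six days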
* marks the source's active call; other numbers are inactive results; ? = inconclusive; . = no result given.

smiles,Mtb hypoxia inh,Mtb hypoxia inh growth,BJeLR lethal,Sa ugtP lethal,Autofluor counter,PrP 5UTR inh,RN4220 kill
Cc1ccccc1S(=O)(=O)Oc1ccc2ccc(O)cc2c1,21,4,3,6,3891,-41,4.4
N/C(=N\OC(=O)Cc1ccc(Cl)cc1)c1ccccn1,.,.,-5,.,3181,-53,.
Cc1ccc(S(=O)(=O)NCCC(=O)OC(C)C(=O)NC2CC2)cc1 (configuration not stated),0,6,.,-6,5832,-8,-1.5
CCOc1ccc(C2NC(=O)C(C#N)=C(S)N2c2ccc(C)cc2)cc1OC (configuration not stated),.,.,-3,4,3965,-7,-0.5
O=C(NCc1ccccn1)c1ccc(CS(=O)(=O)Cc2ccc(Cl)cc2)o1,4,2,0,11,2646,-9,7.1
N/C(=N\OC(=O)Cc1ccccc1)c1ccccc1Cl,-8,-9,-6,6,2554,-45,2.9
CCOC(=O)C1CCCN(C(=O)c2ccco2)C1 (configuration not stated),.,.,-3,.,23110*,-7,.
COc1ccc(-n2ncc3c(Nc4cccc(C)c4)ncnc32)cc1,0,-5,14,12,6835,-92,1.2
O=C(Nc1nnc(SCCC2OCCO2)s1)C1CC(=O)N(c2ccc(F)cc2)C1 (configuration not stated),-9,5,-8,-4,6167,-7,-2.8
COc1ccc(S(=O)(=O)Nc2ccc3c(c2)OCO3)cc1C(=O)O,16,1,-8,6,7111,-7,4.3
O=C(Nc1ccc2c(c1)OCCO2)c1ccc(Cl)c(S(=O)(=O)N2CCCCC2)c1,-4,8,10,8,6756,-15,8.7
COc1ccc(N2CC(O)=C(c3nc(-c4ccc(F)cc4)cs3)C2=N)cc1OC,7,-1,-2,4,2625,-19,-4.0
Cc1ccc(/C=C/C2=NN(Cc3ccccc3Cl)C(=O)CC2)cc1,.,.,6,10,4874,-11,2.8
Oc1oc(-c2ccccc2)nc1C=Nc1ccccn1,-1,-7,.,-1,.,.,5.4
C=CCN1C(=O)/C(=C2/Sc3ccc(OC)cc3N2CC)SC1=S,6,5,-13,-1,4070,-29,0.4
Cc1ccc(NC(=O)C(=O)C2C(=O)Nc3ccccc32)cc1 (configuration not stated),-14,5,-2,1,4915,-55,9.2
CSCC(C)N1CCC(CCC(=O)NC2CC2)CC1 (configuration not stated),5,8,3,7,6024,-22,-0.2
COc1cc(OC)cc(N2C(=O)CSCC2=O)c1,-1,5,-10,7,4236,-15,1.7
O=C1C=C(c2ccc3c(c2)oc2ccccc23)CC(c2ccc(Cl)cc2)C1 (configuration not stated),2,11,.,-3,.,.,-8.1
COc1cc(CN2CCN(C(=O)c3cccc4ccccc34)CC2)cc(OC)c1O,-3,5,-9,5,3689,-23,2.7
COc1ccccc1C1/C(=C(/O)c2ccccc2)C(=O)C(=O)N1CC(C)O (configuration not stated),.,.,-4,.,2918,-7,.
O=S(=O)(c1ccccc1)N1CCN(CCc2ccccc2)CC1,9,15,-6,20,3336,-23,-1.0
CN1C2CCC1CC(NS(=O)(=O)c1cccc(C(F)(F)F)c1)C2 (configuration not stated),4,-2,1,5,5295,-18,0.4
Cc1ccc2sc3ccc(NC(=O)c4ccccc4Cl)cc3c(=O)c2c1,7,21,9,1,22506*,-51,-4.3
O=C(Nc1ccc2c(c1)CCC2)C1CCN(c2ncccn2)CC1,3,-2,6,-9,5384,-9,3.6
C/C(Cc1ccccc1)=N\NC(=O)CNC(=O)c1cccc(Br)c1,.,.,-1,.,2612,-21,.
COC(=O)/C=C/c1ccc(OC(=O)OC)c(OC(=O)OC)c1,18,-2,0,12,2581,-23,5.2
CC[n+]1ccccc1/C=C/c1ccc(N(C)C)cc1,.,.,26,7,3157,-16,2.4
O=C(O)c1ccccc1C(=O)c1ccc(F)c(F)c1,15,6,.,4,5286,-18,3.2
Cn1cc(C=NNC(=O)c2ccc(C#N)cc2F)c2ccccc21,-4,-2,.,4,.,.,1.0
O=C1NC(=O)C(CCc2ccncc2)(CCc2ccncc2)C(=O)N1Cc1ccc(F)cc1,5,4,3,-1,3457,-24,0.8
C=CCN(CC=C)C(=O)C(=O)c1ccn(-c2c(C)csc2C(=O)OC)c1,1,-6,-7,6,2090,-5,5.5
CSc1ccc(NS(=O)(=O)c2ccc(-n3cnnn3)cc2)cc1,7,-4,-9,1,8413,1,-2.7
O=C(NCc1ccccc1)c1csc(-c2cccnc2)n1,18,2,-6,2,4606,22,5.2
CC(=O)Oc1ccccc1C1C[C@]2(C)CC(=O)NC2N1C(C)=O (some centres not stated),8,4,-3,0,2478,-23,-1.6
CC(C)Oc1cccc(C(=O)NN=Cc2ccoc2)c1,0,8,.,3,.,.,0.9
CCN1CCCC1CNC(=O)c1cc2ccc(OC)cc2[nH]1 (configuration not stated),-9,5,-7,-2,5933,2,-2.5
NNC(=O)c1[nH]c2ccccc2c1-c1ccccc1,.,.,19,.,3584,-27,.
Cc1cc(-n2c(C)cc(C(=O)CSc3nncn3C(C)C)c2C)no1,-7,-9,2,-6,?,-18,-5.9
O=S(=O)(c1cnccc1N1CCN(/N=C/c2ccc(Br)cc2)CC1)N1CCCCC1,.,.,4,.,2061,-9,.
Cc1cccc(C(=O)NNS(=O)(=O)c2ccc(F)cc2)c1,.,.,-9,.,4100,-25,.
Cc1c(N2C(=O)CS/C2=N\N=C\c2ccccc2O)c(=O)n(-c2ccccc2)n1C,.,.,4,.,16255*,-16,.
N#CCc1nc(C(c2ccccc2)c2ccccc2)no1,-14,-2,-1,-3,4716,-28,-0.2
O=C(Nc1cccc([N+](=O)[O-])c1)C1C2CC/C=C\CCC21 (configuration not stated),5,6,-5,-6,3554,-17,3.0
CCC1(CC)C(=O)C(C)(C)C(=O)OC1c1ccccn1 (configuration not stated),.,.,0,-1,5205,-10,-3.0
Cc1[nH]c2ccccc2c1CCN(Cc1cccnc1)C(=S)Nc1ccc(F)cc1,-6,18,-5,14,5376,-22,3.2
CCOC(=O)c1cc(-c2ccc(C)o2)nn1CCC#N,4,8,-6,-3,3085,-4,4.4
CCOc1ccc(Br)cc1-c1noc(-c2cccs2)n1,.,.,5,-6,4719,-2,1.9
O=C(CSc1ncnc2c1nnn2-c1ccc(F)cc1)NCc1ccco1,-2,8,-5,-8,2838,-12,-6.5
O=C(c1ccco1)N1CCN(C2CC(=O)N(c3ccc(F)c(Cl)c3)C2=O)CC1 (configuration not stated),4,8,3,2,7183,-22,-1.0
Cc1ccc(NC(=O)c2oc3ccccc3c2COC(C)C)cc1S(=O)(=O)N1CCOCC1,8,3,.,7,3502,-24,-0.7
CN(C)CCCCCNCCCNC(=O)/C=N\O,.,.,3,.,8392,-10,.
CCOc1ccc(/C=C/C(=O)N(CC)CC(=O)Nc2ccc3c(c2)OCCO3)cc1OCC,-4,11,2,1,5793,0,1.7
C=C1CCN([C@@H](CC(C)C)C(=O)Nc2ccc(OC)cc2)S(=O)(=O)c2ccccc21,.,.,17,.,3994,-21,.
COc1ccc(NC(=O)CCSc2ccc3ccccc3n2)cc1,16,-3,-6,7,2574,-16,2.1
Cc1c(C(=S)Nc2ccccc2)cnn1-c1ccc([N+](=O)[O-])cc1,5,4,-1,-6,2072,-4,1.0
CCN(CC)CCCCCCCCOC(=O)c1cc(OC)c(OC)c(OC)c1,5,3,.,6,6137,-11,1.8
COCCNC(=O)/C(C#N)=C/c1nc(N(C)C)n(-c2ccc(F)cc2)c1Cl,8,4,.,5,4879,-31,0.9
CC(C)/C(=N/Nc1ccccc1[N+](=O)[O-])c1ccccc1,.,.,8,.,3214,-11,.
CCOC(=O)c1c(NS(=O)(=O)c2ccccc2)n(CCCOC)c2nc3ccccc3nc12,-4,3,4,-5,2109,-5,6.5

Given with values under each structure: two of the compounds above
Results follow in this order: Mtb hypoxia inh	Mtb hypoxia inh growth	BJeLR lethal	Sa ugtP lethal	Autofluor counter	PrP 5UTR inh	RN4220 kill
Cc1c(C(=S)Nc2ccccc2)cnn1-c1ccc([N+](=O)[O-])cc1
  5	4	-1	-6	2072	-4	1.0
CCN(CC)CCCCCCCCOC(=O)c1cc(OC)c(OC)c(OC)c1
  5	3	.	6	6137	-11	1.8

A second format for some results above.
SMILES: COc1cc(CN2CCN(C(=O)c3cccc4ccccc34)CC2)cc(OC)c1O
  Mtb hypoxia inh: -3; Mtb hypoxia inh growth: 5; BJeLR lethal: -9; Sa ugtP lethal: 5; Autofluor counter: 3689; PrP 5UTR inh: -23; RN4220 kill: 2.7
SMILES: COc1ccccc1C1/C(=C(/O)c2ccccc2)C(=O)C(=O)N1CC(C)O (configuration not stated)
  Mtb hypoxia inh: .; Mtb hypoxia inh growth: .; BJeLR lethal: -4; Sa ugtP lethal: .; Autofluor counter: 2918; PrP 5UTR inh: -7; RN4220 kill: .

New compounds follow.
smiles,Mtb hypoxia inh,Mtb hypoxia inh growth,BJeLR lethal,Sa ugtP lethal,Autofluor counter,PrP 5UTR inh,RN4220 kill
CC(=O)Nc1ccc(NC(=O)CSc2ccccn2)cc1,-3,3,4,-1,7375,-4,-5.2
COc1ccc([N+](=O)[O-])cc1NC(=O)c1cn(-c2ccc(Cl)cc2)c(=O)c2ccccc12,1,4,-11,-2,2625,-5,-2.4
CCOCCCNC(=O)/C(C#N)=C/c1ccc(-c2ccc(S(=O)(=O)N3CCOCC3)cc2)o1,2,8,-6,-4,3103,-17,2.1
CCC(C(=O)Nc1nc(C)cs1)c1ccccc1 (configuration not stated),11,12,9,-3,3910,1,1.1
NC(=O)c1cc(S(=O)(=O)Nc2ccc(OC(F)(F)F)cc2)cs1,13,13,0,3,3818,-39,0.8
CCOc1cc2c(cc1OCC)C(C(=O)O)C(c1ccc(OC)c(O)c1)N(C)C2=O (configuration not stated),.,.,5,5,2939,-18,0.1
Cc1cc2cc(CN(CC3CCCO3)C(=O)c3cnccn3)c(=O)[nH]c2cc1C (configuration not stated),14,15,18,-2,2256,-10,-11
O=C(CN1CCN(c2ccccn2)CC1)N1c2ccccc2CCc2ccccc21,6,10,-1,5,20825*,-21,4.6
O=C(CCc1ccccc1)NNC(=O)COc1ccc(Br)cc1,7,-1,-6,-4,3712,-29,1.2
O=C(N/N=C\c1cc(Br)c(Br)o1)C1COc2ccccc2O1 (configuration not stated),.,.,0,.,3801,-8,.
CCCCOc1ccccc1C1NC(=O)NC(C)=C1C(=O)OCCOCC (configuration not stated),5,6,0,-1,9531,-19,4.9

Entries of single compounds as entered above:
NC(=O)c1cc(S(=O)(=O)Nc2ccc(OC(F)(F)F)cc2)cs1 is listed as Mtb hypoxia inh: 13; Mtb hypoxia inh growth: 13; BJeLR lethal: 0; Sa ugtP lethal: 3; Autofluor counter: 3818; PrP 5UTR inh: -39; RN4220 kill: 0.8
O=C(N/N=C\c1cc(Br)c(Br)o1)C1COc2ccccc2O1 (configuration not stated) is listed as Mtb hypoxia inh: .; Mtb hypoxia inh growth: .; BJeLR lethal: 0; Sa ugtP lethal: .; Autofluor counter: 3801; PrP 5UTR inh: -8; RN4220 kill: .
